MLL AF4-AF9 inh – blocks AF4 peptide binding to human AF9; P42568; AlphaScreen, biotin-AF4 peptide binding to FLAG-AF9; inhibition, % at 10 µM; 0.47% of 350,000 active; AID 651704;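 active = every replicate reaching a set inhibition limit, whatever the replicate mean, cut at about 25% in these data; inconclusive = mean inhibition reaches that limit but some replicates miss it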;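 also: 0% = plate neutral control median and 100% = total signal loss; the record names both 10 and 1 µM as test concentration; the first replicate is given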
HNF4A DNA FP – change in binding of human HNF4 alpha to DNA | 0.3% of 360,000 active | activity change, % at 10 µM | P41235 | HNF4a-FITC DNA binding, fluorescence polarization, 1 h; in the data active = activity change above about 30%, passing the limit was not always enough;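 also: controls were the assay level and a saturating level of protein; the project sought stronger binding though the title names inhibitors; some compounds called inactive have numbers as strong as hits; positive values seem to mean higher polarization but the record does not say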
Target sequence (P41235 whole entry, looked up): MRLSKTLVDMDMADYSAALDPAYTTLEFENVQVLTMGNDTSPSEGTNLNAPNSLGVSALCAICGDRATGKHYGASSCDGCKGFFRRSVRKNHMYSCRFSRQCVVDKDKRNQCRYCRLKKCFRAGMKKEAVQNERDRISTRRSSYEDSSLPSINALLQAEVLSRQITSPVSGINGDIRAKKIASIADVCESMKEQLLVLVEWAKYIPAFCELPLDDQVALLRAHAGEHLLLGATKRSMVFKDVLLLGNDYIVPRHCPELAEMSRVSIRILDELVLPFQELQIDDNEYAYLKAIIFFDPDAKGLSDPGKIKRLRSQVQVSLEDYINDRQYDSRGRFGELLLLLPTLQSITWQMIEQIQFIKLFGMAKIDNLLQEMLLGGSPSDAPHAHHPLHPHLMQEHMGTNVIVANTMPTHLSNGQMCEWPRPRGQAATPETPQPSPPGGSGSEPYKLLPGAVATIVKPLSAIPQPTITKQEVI
Ecoli growth – inhibitors of Escherichia coli growth; OD600, 23 h; hits give low values; OD600 absorbance (concentration not given with the values); 0.21% of 330,000 active;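 active = OD600 absorbance below the run mean of sample wells minus 3.6 SD, in any replicate, cut at about 0.56 in these data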;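 also: stock transfer was 300 nL into about 60 µL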
Vif A3G – HIV-1 Vif–A3G interaction blockers – biochemical, TR-FRET, GST-Vif 1-94, biotin-A3G peptide, dose response retest, primary screen (AID 1117319); TR-FRET GST-Vif / biotin-A3G peptide binding; higher % means a stronger effect; test concentration not given here; strong numbers were not always called active; inhibition, %; hits with a dose series show IC50 in µM; 0.57% of 260,000 active;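 active = above the screen mean plus three standard deviations and confirmed in dose response; inconclusive = results disagree or hit not tested in dose response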;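 also: Vif residues 1-94 fused to GST binding biotinylated APOBEC3G peptide 110-148; 0% = full assay without inhibitor and 100% = GST in place of GST-Vif; retest series ran down from 100 µM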
UCH37 inh – inhibitors of human deubiquitinating enzyme UCH37. Q9Y5K5. purified proteasome/UCH37, Ub-AMC cleavage fluorescence. inhibition, % (test concentration not listed). 0.33% of 330,000 active. AID 588478;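 active = mean of two replicates above 20%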;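 also: 0% = compound-free wells with enzyme and 100% = wells lacking proteasome; stock transfer was 100 nL into about 20 µL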
Target sequence (Q9Y5K5 whole entry, looked up): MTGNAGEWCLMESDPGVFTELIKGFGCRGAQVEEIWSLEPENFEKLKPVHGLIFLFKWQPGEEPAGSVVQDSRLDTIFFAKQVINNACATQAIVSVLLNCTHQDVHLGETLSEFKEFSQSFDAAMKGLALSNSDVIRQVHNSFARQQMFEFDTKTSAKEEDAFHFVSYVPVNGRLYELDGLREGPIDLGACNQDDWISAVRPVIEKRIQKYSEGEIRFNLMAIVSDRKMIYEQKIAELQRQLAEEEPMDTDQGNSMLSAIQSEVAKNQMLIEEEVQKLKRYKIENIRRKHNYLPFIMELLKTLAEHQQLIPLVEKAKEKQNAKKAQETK
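system = Proteasome-associated human UCH37 deubiquitinase | amount = 0.15 nM proteasome as dispensed | medium = pH 7.4 Tris-HCl (50 mM) with ovalbumin, ATP-MgCl2, DTT | incubation = 30 min preincubation with enzyme, 25 min cleavage at room temperature | detection = AMC fluorescence 355/460 nm | read-out basis = percent inhibition | controls = no-proteasome and no-compound wells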
RanGTP-Impb inh – disruptors of Ran-importin-beta complex formation – biochemical, FRET, CFP-Ran, YFP-importin-beta, homogeneous, primary screen; inhibition, % (test concentration not listed); 1.1% of 300,000 active; cell-free CFP-Ran/YFP-importin-beta FRET ratio;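 active = most replicates above 15%; inconclusive = exactly half above 15%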;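 also: 0% = DMSO wells and 100% = Ran loaded with GDP instead of GTP; wells of about 40 µL received 100 nL stock; the first replicate is given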
FGF22 binding – binders of recombinant human FGF22 by thermal shift; SYPRO orange fluorescence; percent of sucrose octasulfate shift, DMSO zero; 1.5% of 340,000 active; calls only at 9.99 µM; Q9HCT0; AID 651658;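 active = melting point raised past a set limit in the mean and every replicate; inconclusive = no clear call; three in four hits are not shown here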
Target sequence (Q9HCT0 whole entry, looked up): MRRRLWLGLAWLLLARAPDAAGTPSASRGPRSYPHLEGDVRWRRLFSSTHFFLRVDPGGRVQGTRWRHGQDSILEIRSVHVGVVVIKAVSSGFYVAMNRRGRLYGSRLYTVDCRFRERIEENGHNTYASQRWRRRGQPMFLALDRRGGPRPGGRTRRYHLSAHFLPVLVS
An asterisk follows results filed as active; i = inactive; ? = inconclusive; nt = not tested or not shown; + = active, no number; & = joins results of further samples. Some of the compounds tested; rates above refer to the full screens.

SMILES	MLL AF4-AF9 inh	HNF4A DNA FP	Ecoli growth	Vif A3G	UCH37 inh	RanGTP-Impb inh	FGF22 binding
O=C(C1CCN(S(=O)(=O)c2ccc(Br)s2)CC1)N1CCN(c2ccccc2)CC1	-13.8	-0.9	0.693	-1.6%	0.6	-4.1	i
CNC(=O)C1C(=S)NC(N)=C(C#N)C1c1ccccc1 (stereo not given)	nt	-1.1	0.712	?	-0.7	1.6	nt
C=CCNC(=O)c1ccc(C)cc1Cl	nt	1.3	0.661	0.1%	2.0	4.1	nt
Cc1cc(S(=O)(=O)N2CCCC2)ccc1OCC(=O)N1CCOCC1	nt	-2.9	0.705	-1.9%	-0.4	4.6	nt
O=C(c1cc(-c2ccccc2)nc2ccccc12)N1CCN(c2ccccc2O)CC1	6.5	3.7	nt	nt	nt	4.6	i
CCN1CCN(C(=O)CNC(=O)c2nn(-c3ccc(OC)cc3)c(=O)c3ccccc23)CC1	-0.5	0.2	0.704	nt	0.9	-1.1	i
CCOC(=O)c1sc2nc(C)nc(NCc3ccc(Cl)cc3)c2c1C	1.2	-3.0	0.647	4.0%	-34.3	4.5	i
CC(C)(C)OC(=O)N(CCc1ccccc1)Cc1ccccc1OCc1cccc(NC(=O)C2CC2)c1	-0.2	0.9	nt	nt	nt	nt	i
O=C(O)c1[nH]c2ccc(Br)cc2c1CCN1C(=O)c2cccc([N+](=O)[O-])c2C1=O	-12.8	-0.9	0.693	-0.2%	5.1	-0.2	+
Cc1ccc(NC(=O)/C=C/c2ccc([N+](=O)[O-])s2)c(C)c1	2.0	17.9	0.728	nt	5.3	3.1	i
CCOc1ccc(CSC(=N)N)cc1Cl	3.6	-0.6	0.641	-4.8%	2.1	-0.5	i
CCOC(=O)C1CCN(C(=O)c2cc(S(=O)(=O)N(C)C)ccc2N2CCCC2)CC1	-7.4	-1.7	0.697	nt	7.6	3.3	i
FC(F)(F)c1ccc(Oc2ccc3cc(Br)ccc3c2)nc1	-3.3	3.1	0.73	nt	2.3	-0.5	i
N#Cc1cccc(C#N)c1Oc1ccc(N)cc1	0.1	0.6	0.642	-6.2%	3.7	0.3	i
Cc1ccccc1SCC(=O)OCC(=O)N(C)c1c(N)n(Cc2ccccc2)c(=O)[nH]c1=O	-0.4	3.6	0.712	-5.5%	3.2	2.3	i
CCOc1ccc(S(=O)(=O)N2CCC(C(=O)NCCN3CCOCC3)CC2)cc1C	-0.5	-0.1	0.703	nt	2.1	0.7	i
O=C(COc1ccc(Cl)cc1)NCc1nnc(SCC(=O)NCc2ccc3c(c2)OCO3)o1	nt	-2.0	0.712	?	-2.3	-1.9	nt
CC1CCN(S(=O)(=O)c2ccccc2)CC1	-5.4	2.2	0.697	nt	0.7	-4.7	i
O=C(CCCN=C1NS(=O)(=O)c2ccccc21)OCC(=O)c1ccc(F)c(F)c1	7.7	-1.0	0.669	-0.7%	3.1	3.3	i
CCOC(=O)c1nnn(-c2nonc2N)c1-c1ccc(C)cc1	nt	-3.6	0.742	17.1%	1.8	5.7	nt
N#Cc1cccc(OCCCN2CCC(C(O)(c3ccccc3)c3ccccc3)CC2)c1	4.8	2.1	nt	nt	nt	nt	i
Cc1ccc(-c2nc(N)n(C(=O)c3cccnc3)n2)cc1	nt	-3.4	0.692	3.7%	-13.0	-2.2	nt
O=c1ccc(=O)n2n1CC(O)C2	nt	-1.9	0.731	-3.8%	1.0	2.9	nt
CC(C)CCN(C(=O)COc1ccc(C#N)cc1)c1c(N)n(Cc2ccccc2)c(=O)[nH]c1=O	nt	nt	0.644	nt	3.5	2.6	nt
CSc1ncccc1C(=O)NCc1ccc(C)cc1	nt	1.4	0.673	3.9%	1.9	-0.1	nt
N#Cc1cc2ccccc2nc1N	-1.4	0.3	0.655	8.9%	-194.4	0.7	i
Cc1c(Cl)cccc1NC(=O)Cc1ccc([N+](=O)[O-])cc1	-3.4	2.4	0.699	-2.4%	2.6	nt	i
Cc1ccc(S(=O)(=O)CCC(=O)Nc2cccc([N+](=O)[O-])c2)cc1	-3.4	2.9	0.674	3.5%	3.0	-0.8	i
CC(C)CNC(=O)CSc1ccc(Cl)cc1	nt	3.3	0.744	2.9%	-1.1	-1.2	nt
O=C(O)CC(NC(=O)c1ccncc1)c1ccccc1 (stereo not given)	-3.1	2.9	0.665	-2.9%	0.2	?	i

Complete entries from above. Values in the order: MLL AF4-AF9 inh | HNF4A DNA FP | Ecoli growth | Vif A3G | UCH37 inh | RanGTP-Impb inh | FGF22 binding
Record of `Cc1ccc(-c2nc(N)n(C(=O)c3cccnc3)n2)cc1` = nt | -3.4 | 0.692 | 3.7% | -13.0 | -2.2 | nt
Record of `N#Cc1cc2ccccc2nc1N` = -1.4 | 0.3 | 0.655 | 8.9% | -194.4 | 0.7 | i
Record of `N#Cc1cccc(OCCCN2CCC(C(O)(c3ccccc3)c3ccccc3)CC2)c1` = 4.8 | 2.1 | nt | nt | nt | nt | i
Record of `Cc1ccc(S(=O)(=O)CCC(=O)Nc2cccc([N+](=O)[O-])c2)cc1` = -3.4 | 2.9 | 0.674 | 3.5% | 3.0 | -0.8 | i

The results go on.
SMILES	MLL AF4-AF9 inh	HNF4A DNA FP	Ecoli growth	Vif A3G	UCH37 inh	RanGTP-Impb inh	FGF22 binding
CCOC(=O)Cc1c(C)nc(N)[nH]c1=O	-6.1	-2.6	0.67	1.3%	-0.1	5.7	i
CC(C)(C)c1ccc(Cn2c(=O)cnc3ccccc32)cc1	-1.5	-0.7	0.682	nt	0.7	-2.8	i
COc1ccc(NC(=O)CCN2C(=O)[C@@H]3[C@H](C2=O)[C@H]2C=C[C@@H]3C2)cc1	-10.5	-1.9	0.707	-0.5%	2.2	-0.4	i
CC(C)C[C@@H](CSc1ccc(Br)cc1)N1CCN(CCc2ccccc2)CCC1=O	-14.5	3.7	nt	nt	3.2	-1.7	i
O=C(NC1CC1)c1ccc(NS(=O)(=O)c2ccc(F)cc2)cc1	-0.8	2.5	0.621	-6.5%	-1.6	-0.4	i
CC(=O)NC(Cc1ccc(F)cc1)C(=O)NC1CCN(C(=O)Nc2ccccc2C)CC1 (stereo not given)	0.9	0.1	0.675	nt	4.8	?	i
Cc1ccc(S(=O)(=O)N2CCCC2CNC(=O)C(=O)Nc2ccc(F)cc2)cc1 (stereo not given)	0.4	0.3	0.641	-1.7%	2.3	31.5*	i
COc1ccc(/C=C/C(=O)NCCSCc2ccco2)cc1	nt	-1.4	0.701	2.8%	2.5	1.9	nt
CCOC(=O)/C=C1\SCC(=O)N1Cc1ccc(Br)cc1	nt	3.6	0.732	21.8%	2.7	4.9	nt
Cc1cc(C)n2c(SCC(=O)Nc3c(C)n(C)n(-c4ccccc4)c3=O)nnc2n1	nt	-1.1	0.768	10.6%	-6.6	1.2	nt
CC(=O)c1cccc(NC(=O)CCc2nnc3ccc(NCc4ccco4)nn23)c1	0.4	-1.2	0.7	nt	4.1	?	i
COc1ccc(C(NC(=O)CC(C)C)c2c(O)ccc3ccccc23)cc1 (stereo not given)	2.5	1.0	0.676	nt	-3.2	-4.8	i
CCOCCCNC(=O)C(c1ccc(Cl)cc1)N1CCN(c2ccccc2)CC1 (stereo not given)	-4.2	3.8	0.737	-4.0%	5.2	5.6	i
C=CCNc1nc(N2CCCC2)nc2ccccc12	nt	1.9	0.726	-4.4%	-9.4	-2.2	nt
COc1ccc(/C=C2\C(=O)NCC(=O)N2C)cc1	3.0	4.8	0.641	-3.0%	1.6	1.3	i
CC1=CC(=O)C(C(C)C)=C/C1=N\OC(=O)c1cccc2nc(C)oc12	5.1	-1.7	nt	31.2%	nt	4.2	i
COc1cccc(/C=C/C(=O)OCC(=O)Nc2ccccc2Sc2ccccc2)c1	-5.9	-1.1	0.751	nt	0.3	6.5	i
Cc1nn(C)c(C)c1NC(=O)c1ccc(S(=O)(=O)N(C)C)cc1	nt	0.0	0.672	-1.3%	0.5	?	nt
Cc1ccsc1C(=O)NNC(=O)COc1ccccc1Cl	-0.7	-0.9	0.622	2.5%	5.0	0.5	i
COc1ccc(-c2c(C)nn3c(N4CCOCC4)cc(C)nc23)cc1OC	-1.4	2.7	0.713	-0.7%	7.6	2.3	i
CC1Oc2ccccc2N(CC(=O)N2CCCCC2)C1=O (stereo not given)	30.4*	-2.2	0.68	nt	5.9	2.2	i
Clc1ccccc1Cn1nnc2ccccc21	-1.7	21.3	0.661	-9.1%	-0.3	0.1	i
CCOC(=O)c1cnc2ccc(C(=O)OC)cc2c1NCCCN1CCOCC1	-0.7	-3.6	0.623	nt	-19.9	3.1	i
CCOC(=O)C1=C(O)CSC1=Nc1ccc(C)cc1	0.2	8.1	0.668	-8.0%	-1.7	6.7	i
Cc1ccc(S(=O)(=O)N2CCN(Cc3cc(=O)n4ccccc4n3)CC2)c(C)c1	-2.7	-3.4	0.703	0.1%	3.7	nt	i
O=C(c1cc(C2CC2)nc2ccccc12)N1N=C(C(F)F)CC1(O)C(F)F (stereo not given)	nt	-2.1	0.721	-3.4%	1.4	0.2	nt
O=C(/C=C/c1ccc2ccccc2n1)c1cc(Br)ccc1O	-5.3	28.7	0.681	nt	-2.1	1.6	i
COc1ccc(-c2cc(NC=O)c3ncc(-c4cccc(OC)c4)n3c2)cc1	-4.2	8.9	nt	nt	nt	nt	i
CC(C)(C)c1ccc(C(=O)N2CCC2(C)C(=O)NCc2cccs2)cc1 (stereo not given)	0.7	1.4	nt	nt	nt	nt	i
C[C@@H]1CCCCO[C@@H](CN(C)C(=O)CCC(F)(F)F)[C@@H](C)CN([C@H](C)CO)C(=O)c2cc(N(C)C)ccc2O1	1.6&1.9&2.1	4.0	nt	-0.2%	nt	nt	i
CN(C)C(=O)c1ccc(NC(=O)COC(=O)C2CCN(S(=O)(=O)c3ccc4c(c3)OCCO4)CC2)cc1	2.8	2.2	nt	nt	nt	0.1	i
COc1ccc(NC(=O)COC(=O)c2ccc(C)c(S(=O)(=O)N3CCCCC3)c2)cc1	1.0	-2.4	0.678	-4.2%	4.8	nt	i
CCC(Cc1ccccc1)NC(=O)CSc1ccsc1[N+](=O)[O-] (stereo not given)	nt	-1.0	0.738	-5.8%	5.0	7.1	nt
Cc1nc2c(C(=O)NCCC(C)C)c[nH]n2c(=O)c1Cc1ccccc1F	nt	0.2	0.635	7.8%	-3.8	0.7	nt
Cn1cc(Cc2ccc(C(=O)N3CCN(Cc4ccccc4)CC3)cn2)c2ccccc21	6.4	-1.9	nt	nt	nt	nt	i
CC(/C=C/c1ccccc1)=N/NC(=O)c1cccc(Br)c1	-3.1	2.0	nt	-4.0%	nt	2.9	i
O=C(CCC1CCCCC1)Nc1ccccc1C(=O)N1CCOCC1	2.3	0.3	0.7	nt	1.4	3.6	i
COc1ccc(NC(=O)c2cc3ccccc3[nH]2)cc1	-20.1	4.5	0.68	nt	2.2	5.6	i
CC(C)CC(=O)NC(=S)Nc1nc(-c2ccc(Cl)cc2)cs1	1.5	2.4	0.709	-1.0%	1.8	nt	i
CN(C(=O)CSc1nccc(=O)[nH]1)C1CCCCC1	-7.0	-2.0	0.677	nt	0.4	nt	i
CC(=O)c1c(C)n(-c2ccc(N(C)C)cc2)c2ccc(OCC(N)=O)cc12	nt	1.2	0.706	6.0%	-5.5	?	nt
Cc1nc(-c2ccc(S(=O)(=O)N3CCN(c4ccccc4)CC3)cc2)co1	3.3	0.1	0.727	nt	0.7	2.3	i
CSCCC(NS(=O)(=O)c1ccc2c(c1)oc(=O)n2C)C(=O)NCc1cccs1 (stereo not given)	3.1	0.5	0.669	-4.8%	1.4	0.4	i
Cn1ccc2c(-c3cccc(C=O)c3)cc3c(c21)C1CCC3C1 (stereo not given)	2.7	4.0	nt	nt	nt	nt	i

High-throughput results as filed in PubChem.
